YopH inh: blocks Yersinia enterocolitica YopH tyrosine phosphatase; inhibition, %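 (about 10 µM by stock and volumes)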; fluorescence Ex485/Em525; hit rate 0.16% among 140,000;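 active = inhibition of 50% or more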;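 also: controls were vehicle for no effect and minimum signal wells for full effect; inactives centre near -20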
Mtb bLac sens: beta-lactam sensitization of Mtb H37Rv; inhibition, % at 25 µM; hit rate 0.27% among 330,000; M. tuberculosis H37Rv growth with meropenem, percent inhibition; hits of this screen are not shown here;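 active = about 74% or more and at least 40 points above the plate without the antibiotic, then above 30% in a dose series; inconclusive = first-round hits that could not be retested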;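 also: growth measured after seven days incubation then overnight dye step; 0% = bacteria only wells and 100% = bacteria with antibiotic; twin plates without the antibiotic show which effects depend on it; some results filed as inactive read as strong as hits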
Mtb H37Rv: M. tuberculosis H37Rv growth inhibitors, H37Rv strain (AID 1626); M. tuberculosis H37Rv growth inhibition; higher % means a stronger effect; inhibition, % at 10 µM; hits with a dose series show IC50 in µM; hit rate 0.95% among 220,000;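 active = confirmed in a dose series; inconclusive = inhibition above 80% but not taken into the dose series; inactive = below 80% or under 30% at every dose of the series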;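 also: bacteria incubated seven days before Alamar blue readout; 0% = bacteria only wells and 100% = bacteria with antibiotic wells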
RecA splice inh: blocks M. tuberculosis RecA intein splicing; P9WHJ3; cell-free RecA intein splicing, fluorescence; inhibition, %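 (about 9 µM by stock and volumes)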; hit rate 0.75% among 290,000; in the data active = inhibition above about 30%; inconclusive = no clear call, values can overlap the other calls;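 also: 0% = vehicle wells and 100% = reference inhibitor control wells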
Target sequence (P9WHJ3 whole entry, looked up, canonical isoform): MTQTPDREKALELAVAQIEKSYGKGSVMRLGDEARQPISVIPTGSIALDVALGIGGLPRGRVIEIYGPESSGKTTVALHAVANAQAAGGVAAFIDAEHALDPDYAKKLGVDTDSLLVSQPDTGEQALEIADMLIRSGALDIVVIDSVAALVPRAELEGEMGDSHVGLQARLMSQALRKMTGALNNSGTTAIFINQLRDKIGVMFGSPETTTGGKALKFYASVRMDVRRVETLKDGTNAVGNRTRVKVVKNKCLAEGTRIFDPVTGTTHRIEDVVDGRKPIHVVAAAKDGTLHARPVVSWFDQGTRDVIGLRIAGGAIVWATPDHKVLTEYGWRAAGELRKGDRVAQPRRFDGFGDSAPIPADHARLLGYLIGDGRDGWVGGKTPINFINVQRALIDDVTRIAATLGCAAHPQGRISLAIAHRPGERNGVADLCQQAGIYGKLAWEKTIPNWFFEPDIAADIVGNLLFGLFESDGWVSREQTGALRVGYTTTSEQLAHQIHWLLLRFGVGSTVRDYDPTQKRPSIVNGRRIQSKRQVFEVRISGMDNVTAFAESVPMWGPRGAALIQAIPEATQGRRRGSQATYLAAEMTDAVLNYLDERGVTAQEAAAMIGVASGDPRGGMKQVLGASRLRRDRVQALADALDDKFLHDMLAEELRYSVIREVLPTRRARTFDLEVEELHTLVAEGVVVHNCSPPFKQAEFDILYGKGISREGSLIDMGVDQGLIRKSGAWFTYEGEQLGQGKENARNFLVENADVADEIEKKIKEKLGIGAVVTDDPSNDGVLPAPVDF
Arbovirus anti: arbovirus infection inhibition | arbovirus infection cell-based antiviral screen | inhibition, % at 10 µM | hit rate 0.37% among 200,000 | AID 1251;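 active = inhibition from about 30%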;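 also: bluetongue infection of BSR cells; cell survival read as ATP light after 72 h; 0% = infected wells without compound and 100% = uninfected wells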
Arbovirus anti repeat: further read-out of Arbovirus anti, marked with its call; inhibition, %; measured here: 10K subset replicate screen; many hits read low in the repeat;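 first of two repeat runs on a subset; 0% = infected and 100% = uninfected wells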
Starred values were filed as active, the others as inactive. A portion of the library; count on the stated rates, not on these rows.

Screening CC(=O)c1cccc(NC(=O)CCc2nnc3ccc(NCc4ccc5c(c4)OCO5)nn23)c1 returned Mtb bLac sens -5.8 and RecA splice inh 1.6.
`Cc1ccc(N2CC(=O)N(CC(=O)O)C2=O)cc1` gave Mtb bLac sens -1.7, Mtb H37Rv -3.8%, RecA splice inh -12.5 and Arbovirus anti -1.3.
Screening Cc1cc(C(=O)O)cc(S(=O)(=O)Nc2ccccc2C(=O)NC(C)c2ccccc2)c1C (stereo unspecified) returned Mtb bLac sens -17.9 and RecA splice inh -0.5.
CC1CN(Cc2ccccc2)c2nc3c(c(=O)n(CC(=O)O)c(=O)n3C)n2C1 (stereo unspecified) was read as Mtb bLac sens 1.7 and RecA splice inh 0.4.
For Cc1cccc(-c2nn(-c3ccccc3)cc2C(=O)NCC(c2cccs2)N2CCOCC2)c1 (stereo unspecified) the results were Mtb bLac sens -1.9 and RecA splice inh 9.5.
For O=C(CCC(=O)c1ccccc1)NCc1ccccc1 the results were Mtb bLac sens -6.6, Mtb H37Rv 9.7% and RecA splice inh -1.3.
For CC1(C)C2([N+](=O)[O-])CN3CC1([N+](=O)[O-])CN(C2)C3c1cccnc1 (stereo unspecified) the results were Mtb bLac sens -9.1, Mtb H37Rv 0.0% and RecA splice inh 0.5.
For FC(F)Oc1ccccc1NC(=S)NCc1ccco1 the results were YopH inh -17.6, Mtb bLac sens -2.6, Mtb H37Rv -3.7%, RecA splice inh 4.1 and Arbovirus anti 2.9.
Screening O=C(C[n+]1cn(C(F)F)c2ccccc21)c1ccc(Br)cc1 returned Mtb bLac sens -0.9, Mtb H37Rv -0.7%, RecA splice inh 8.3 and Arbovirus anti -2.2.
COC(=O)NCC(c1ccc2c(c1)OCO2)N1CCN(c2ccc(OC)cc2)CC1 (stereo unspecified) was read as Mtb bLac sens 1.8 and RecA splice inh -9.1.
`COc1ccc(NC(=O)CCCCCN2C(=O)[C@@H]3Cc4ccccc4CN3C2=O)cc1Cl` gave Mtb bLac sens 37.2 and RecA splice inh 1.6.
COCCNC(=O)c1ccccc1NC(=O)CCSc1ccccc1 was read as Mtb bLac sens 0.2, Mtb H37Rv -1.4%, RecA splice inh 0.9 and Arbovirus anti 0.2.
Cc1ccc(-n2c(=O)cc(NCc3cccnc3)[nH]c2=O)cc1 was read as YopH inh -27.4, Mtb bLac sens -8.5, Mtb H37Rv -8.1%, RecA splice inh 0.9 and Arbovirus anti 7.0.
`Cc1ccc(S(=O)(=O)N(CC(=O)NCc2cccnc2)c2ccc(F)cc2)cc1` gave Mtb bLac sens -0.4 and RecA splice inh 0.3.
`COc1cc(C)nc(Oc2ccc(=O)[nH]n2)n1` gave YopH inh -11.5, Mtb bLac sens -0.3, Mtb H37Rv 0.8%, RecA splice inh 0.3 and Arbovirus anti 4.2.
For Cc1cc(C)cc(NC(=O)N2CCN(C/C=C/c3ccccc3)CC2)c1 the results were Mtb bLac sens 1.0, Mtb H37Rv -0.4%, RecA splice inh 1.0 and Arbovirus anti -9.8.
`FC(F)(F)c1cccc(-n2cc(-c3ccccc3)[nH]c2=S)c1` gave Mtb bLac sens 7.0 and RecA splice inh 1.2.
Screening O=C(c1ccc2ccccc2c1)C1CCCN(S(=O)(=O)c2cccnc2)C1 (stereo unspecified) returned Mtb bLac sens 5.6, Mtb H37Rv -8.4%, RecA splice inh -1.1 and Arbovirus anti 13.0.
`O=C(NCc1nc2ccccc2[nH]1)C1=C[C@H](c2ccc(C(F)(F)F)cc2)C[C@H](OCCCCO)O1` gave Mtb bLac sens 55.7, Mtb H37Rv 1.0% and RecA splice inh 3.7.
For CCOC(=O)c1c(C)n(-c2ccc(C)cc2)c2ccc(OCC(O)CNCCCO)cc12 (stereo unspecified) the results were Mtb bLac sens 93.1, Mtb H37Rv 20.3µM*, RecA splice inh 4.6 and Arbovirus anti -22.3.
O=C(OCC(=O)c1ccc(S(=O)(=O)N2CCCC2)cc1)C1=COCCO1 was read as YopH inh -27.4, Mtb bLac sens 17.6, Mtb H37Rv -0.3% and Arbovirus anti 5.5.
Screening C/C(Cc1ccccc1)=N\NC(=O)C1CCCCC1 returned YopH inh -31.5, Mtb bLac sens 1.1, Mtb H37Rv 4.2%, RecA splice inh 0.5 and Arbovirus anti -0.6.
For COC(=O)c1ccccc1NC(=S)NC(NC(=O)c1ccccc1[N+](=O)[O-])C(Cl)(Cl)Cl (stereo unspecified) the results were YopH inh -19.4, Mtb bLac sens -2.4, Mtb H37Rv -12.3%, RecA splice inh 6.7 and Arbovirus anti 8.4.
Cc1nc2cc(C(=O)N3CCC4(CC3)OCCO4)ccc2n1-c1cccc(F)c1 was read as YopH inh -18.8, Mtb bLac sens -10.2, Mtb H37Rv 0.0%, RecA splice inh -2.2 and Arbovirus anti 1.5.
`CCCc1nc(N2CCN(S(=O)(=O)c3ccc(Cl)cc3)CC2)c2c(C)c(C)sc2n1` gave Mtb bLac sens -14.6, Mtb H37Rv 2.5%, RecA splice inh 2.4 and Arbovirus anti -0.9.
For O=C(CCCN1C(=O)/C(=C/c2ccccc2)SC1=S)Nc1ccccc1O the results were Mtb bLac sens 3.7, Mtb H37Rv 5.6%, RecA splice inh -0.2 and Arbovirus anti 9.6.
`Cn1ncc(Cl)c(Oc2ccc(C(C)(C)C)cc2)c1=O` gave YopH inh -19.2, Mtb bLac sens -2.3, Mtb H37Rv 13.1%, RecA splice inh 2.9 and Arbovirus anti 6.1.
`COc1ccc(Cl)cc1CSc1ncn[nH]1` gave Mtb bLac sens -8.8, Mtb H37Rv 1.3% and RecA splice inh -0.6.
O=C(Nc1ccc(COc2ccccc2)cc1)c1cccc([N+](=O)[O-])c1 was read as YopH inh -13.0, Mtb bLac sens 5.1, Mtb H37Rv 14.9%, RecA splice inh -0.2 and Arbovirus anti -19.0.
Screening CC(C)c1nc(SCC(=O)N2c3ccccc3CC2C)c2ccccc2n1 (stereo unspecified) returned YopH inh -21.6, Mtb bLac sens 10.7, Mtb H37Rv -1.0%, RecA splice inh 1.9 and Arbovirus anti 5.7.
`O=S(=O)(Nc1ccc(N2CCOCC2)nn1)c1ccccc1` gave YopH inh -34.8, Mtb bLac sens -5.8, Mtb H37Rv -5.8%, RecA splice inh 0.4 and Arbovirus anti 0.8.
`CCC(C)NC(=O)CSc1n[nH]c(=O)n1CCc1ccccc1` (stereo unspecified) gave Mtb bLac sens -9.7 and RecA splice inh -1.8.
For O=C1CC(c2ccccc2)CCc2sccc2N1 (stereo unspecified) the results were YopH inh -22.5, Mtb bLac sens -8.3, Mtb H37Rv -7.2%, RecA splice inh -3.4 and Arbovirus anti 15.3.
Screening NP(=O)(OCCCCc1ccccc1)Oc1ccccc1Cl (stereo unspecified) returned Mtb bLac sens 3.6 and RecA splice inh -1.2.
`O=C(c1ccc([N+](=O)[O-])cc1Cl)N1CCN(c2ccccn2)CC1` gave Mtb bLac sens -0.7 and Mtb H37Rv -1.8%.
`CCOC(=O)CCCNC(=O)COc1ccccc1C#N` gave YopH inh -28.1, Mtb bLac sens -2.0, Mtb H37Rv -7.2% and Arbovirus anti -0.8.

Three structures out of the list, arranged by count of non-hydrogen atoms, smallest number first:
`Cn1ncc(Cl)c(Oc2ccc(C(C)(C)C)cc2)c1=O` gave YopH inh -19.2, Mtb bLac sens -2.3, Mtb H37Rv 13.1%, RecA splice inh 2.9 and Arbovirus anti 6.1.
`CCOC(=O)CCCNC(=O)COc1ccccc1C#N` gave YopH inh -28.1, Mtb bLac sens -2.0, Mtb H37Rv -7.2% and Arbovirus anti -0.8.
`CCC(C)NC(=O)CSc1n[nH]c(=O)n1CCc1ccccc1` (stereo unspecified) gave Mtb bLac sens -9.7 and RecA splice inh -1.8.

(listing goes on)
Screening O=C(CN1C(=O)NC2(CCc3ccccc32)C1=O)Nc1cccc(F)c1 (stereo unspecified) returned Mtb bLac sens -3.0 and RecA splice inh 1.6.
`COc1ccc(OCCCC(=O)Nc2ccc(N3CCOCC3)cc2)cc1` gave Mtb bLac sens 16.9, Mtb H37Rv -0.5%, RecA splice inh 6.6 and Arbovirus anti -3.1.
For O=C(OCc1ccc2c(c1)OCO2)c1ccc(S(=O)(=O)N2CCCC2)cc1 the results were YopH inh -25.6, Mtb bLac sens 4.8, Mtb H37Rv -11.9%, RecA splice inh 4.1 and Arbovirus anti 3.8.
Screening COc1ccc2oc(=O)c(/C(C)=N/NC(=O)c3ccncc3)cc2c1 returned YopH inh -19.0, Mtb bLac sens 99.3, Mtb H37Rv inconclusive and Arbovirus anti 2.0.
For O=C(Nc1cccc(C(=O)N2CCN(c3cccc(Cl)c3)CC2)c1)c1ccccc1 the results were Mtb bLac sens 60.1, Mtb H37Rv 15.3%, RecA splice inh 13.7 and Arbovirus anti -13.3.
Screening O=C(Nc1nnc(C2=COCCO2)o1)c1ccc(S(=O)(=O)N2CCCC2)cc1 returned Mtb bLac sens 43.8, Mtb H37Rv -3.7%, RecA splice inh 1.3 and Arbovirus anti -1.2.
`COCC(C)NCc1cccc([N+](=O)[O-])c1` (stereo unspecified) gave YopH inh -20.6, Mtb bLac sens -7.0, Mtb H37Rv -5.7%, RecA splice inh 1.8 and Arbovirus anti 5.9.
`Cc1ccc(F)cc1NC(=O)CN1CCN(Cc2ccccc2)CC1` gave Mtb bLac sens -5.6 and RecA splice inh 2.3.
Screening O=C(Nc1cnccn1)c1cccs1 returned YopH inh -38.6, Mtb bLac sens -10.8, Mtb H37Rv 0.9%, RecA splice inh 6.2, Arbovirus anti 3.6 and Arbovirus anti repeat -2.4.
`C/C(=N/NS(=O)(=O)c1ccccc1)c1ccc(Cl)cc1` gave Mtb bLac sens -3.1, Mtb H37Rv -6.0%, RecA splice inh 2.6 and Arbovirus anti 0.4.
`COc1ccc(C)cc1NC(=O)Nc1cccc(C)c1` gave Mtb bLac sens 4.0, Mtb H37Rv -0.5%, RecA splice inh 1.4 and Arbovirus anti -1.8.
CCCCCn1c(NCc2ccco2)nc2ccccc21 was read as YopH inh -8.8, Mtb bLac sens 5.4, Mtb H37Rv 16.2%, RecA splice inh -1.3, Arbovirus anti 6.6 and Arbovirus anti repeat -3.9.
For Clc1ccc(-c2csc(N/N=C\c3cccnc3)n2)cc1 the results were YopH inh -4.5, Mtb bLac sens 23.1, Mtb H37Rv 12.1%, RecA splice inh 2.1 and Arbovirus anti 22.6.
Screening CN(Cc1cccs1)C(=O)CCc1ccc(S(=O)(=O)N2CCOCC2)cc1 returned YopH inh -3.4, Mtb bLac sens -3.9, Mtb H37Rv -5.7%, RecA splice inh -1.0 and Arbovirus anti -3.1.
For COc1ccccc1-c1ccc(SCc2ccc([N+](=O)[O-])cc2)nn1 the results were Mtb bLac sens 2.2, Mtb H37Rv 11.8%, RecA splice inh 1.9 and Arbovirus anti 0.8.
`CCCCn1c(N)c(N(CCOC)C(=O)Cn2c(=O)oc3ccccc32)c(=O)[nH]c1=O` gave Mtb bLac sens -8.9 and RecA splice inh 0.0.
`COc1ccc2nc(CC(C)(C)CC(=O)O)c[n+]([O-])c2c1` gave YopH inh -29.5, Mtb bLac sens -14.3, Mtb H37Rv 0.0%, RecA splice inh -3.4 and Arbovirus anti 7.3.
`CCN(CC)C(=O)CSc1nc2ccccc2c(=O)[nH]1` gave YopH inh -40.1, Mtb bLac sens -4.2, Mtb H37Rv -12.1%, RecA splice inh -0.9 and Arbovirus anti 5.3.
`Cc1c(C(=O)Nc2ccc3oc(-c4cccnc4)nc3c2)oc2ccccc12` gave YopH inh -30.5, Mtb bLac sens 4.5, Mtb H37Rv 1.5%, RecA splice inh -0.8 and Arbovirus anti -2.2.
For Cc1ccc(NC(=O)C2CCN(c3ncnc4c3nc3n4CCCCC3)CC2)nc1 the results were Mtb bLac sens 20.1 and RecA splice inh -8.4.
`CN1C(=O)NC(c2ccc(O)cc2)C2=C1CN(c1cccc3ccccc13)C2=O` (stereo unspecified) gave Mtb bLac sens 0.2, Mtb H37Rv 1.0%, RecA splice inh 3.1 and Arbovirus anti 20.3.
Screening CCC1CCCCN1C(=O)c1ccc(OC2CCN(C(=O)C3CC3)CC2)cc1 (stereo unspecified) returned Mtb bLac sens 1.4, Mtb H37Rv -18.5%, RecA splice inh -3.2 and Arbovirus anti -3.9.
N#Cc1ccccc1OCC(=O)NC(N)=O was read as YopH inh 6.6, Mtb bLac sens -17.1, Mtb H37Rv -1.2%, RecA splice inh 4.9 and Arbovirus anti 8.8.
`Cc1cccc(COC(=O)C(Cc2ccccc2)NC(N)=O)c1` (stereo unspecified) gave Mtb bLac sens 2.5 and RecA splice inh 0.7.
`O=C(Nc1ccccc1O)c1ccc([N+](=O)[O-])cc1` gave Mtb bLac sens -7.1 and RecA splice inh -2.8.
COc1ccc(Cl)cc1NC(=O)CSc1nc(N2CCCCC2)nc(N2CCCCC2)n1 was read as YopH inh -23.1, Mtb bLac sens -3.5, Mtb H37Rv -3.9%, RecA splice inh -1.3 and Arbovirus anti 6.9.
Screening CC(=O)N1c2ccc(S(=O)(=O)N3CCC(C(=O)NC4CCCC(C)C4C)CC3)cc2CC1C (stereo unspecified) returned Mtb bLac sens -5.4 and RecA splice inh -1.6.

Screening results deposited in PubChem by several laboratories.
